# Source: PubChem
# KSHV LANA nucl = inhibitors of KSHV LANA binding to nucleosomes | FITC-LANA1-23 / chicken nucleosome fluorescence polarization; stronger effect = lower value | z-score (test concentration not listed) | 51,000 compounds, 0.3% hits | AID 720717;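 active = both repeat wells score below -2 in polarization z-score versus plate sample wells, excluding overly bright wells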;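 note: 100 nL library stock added to about 30 µL; numbers are from one replicate; some results filed as inactive read as strong as hits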
#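 System – purified chicken nucleosomes with FITC-labelled LANA N-terminal peptide (1-23) · Amount – 240 nM purified chicken nucleosomes (480 nM peptide binding sites), final · Also added – 50 nM FITC-LANA1-23 probe · Medium – TEN-BT buffer, pH 7.5 · Incubation – compound with peptide–nucleosome mix 10–45 min at room temperature · Detection – fluorescence polarization, ex 480 nm, em 535 nm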
# Ab BasE inh = BasE siderophore biosynthesis inhibition; 84,000 compounds, 0.1% hits; AID 485350; purified BasE, fluorescence polarization binding displacement; inhibition, % (no concentration beside the values);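 active = both replicates above 25% with normal brightness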;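 note: 0% = negative plate control signal and 100% = positive plate control signal; stock transfer was 100 nL into about 30 µL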
# Starred values were filed as active, the others as inactive; x = not tested or not shown; & = joins results of further samples. A portion of the library; rates above refer to the full screens.
# The first 4 entries as a preview:
mol	KSHV LANA nucl	Ab BasE inh
Cc1cc(C)cc(C(=O)OCC(=O)c2c(N)n(C)c(=O)n(C)c2=O)c1	x	2.5
COc1ccc(-c2nc(CC(=O)NCC(c3ccco3)N(C)C)cs2)cc1 (stereo not given)	x	-4.3
NS(=O)(=O)c1ccc(Cl)cc1Sc1ccccc1C(=O)O	x	1.9
O=C(/C=C/c1ccco1)OCC(=O)N1CCCc2ccccc21	x	2.2

# The list itself, previewed entries included:
mol	KSHV LANA nucl	Ab BasE inh
Cc1cc(C)cc(C(=O)OCC(=O)c2c(N)n(C)c(=O)n(C)c2=O)c1	x	2.5
COc1ccc(-c2nc(CC(=O)NCC(c3ccco3)N(C)C)cs2)cc1 (stereo not given)	x	-4.3
NS(=O)(=O)c1ccc(Cl)cc1Sc1ccccc1C(=O)O	x	1.9
O=C(/C=C/c1ccco1)OCC(=O)N1CCCc2ccccc21	x	2.2
Cc1cc(N(Cc2ccc(Cl)cc2)C(=O)c2ccc(Cl)cc2)no1	-0.944	1.6
O=c1[nH]c(=O)n([C@H]2CC(O)[C@@H](CO)O2)cc1I (stereo not given in full)	0.435	1.1
NC(=O)CNC(=O)Cc1c(Cl)cccc1Cl	x	0.3
Cc1ccc2c(c1)CCCN2C(=O)c1ccoc1C	0.0755	-1.4
CN1C(=O)S/C(=C/c2ccc(OCc3ccc(C(=O)O)o3)cc2)C1=O	0.208	-1.3
CN(C)c1ccc(C(C(=O)NC2CCCCC2)N(Cc2ccco2)C(=O)Cc2c[nH]c3ccccc23)cc1 (stereo not given)	-0.118	1.2
Cc1cccc(OCC(N)=O)c1	x	22.2
CC1=C(C(=O)Nc2ccc(CC(=O)N3CCN(c4ccccc4F)CC3)cc2)SCCO1	0.372	-0.4
CC1CN(c2ccc(NC(=O)c3ccco3)cc2C(=O)O)CC(C)O1 (stereo not given)	x	3.8
COc1ccc(-c2nc3sc(-c4ccc(OC)cc4)nc3s2)cc1	-0.631	-0.4
Cc1cc(/C=C(/C#N)c2ccc(Cl)cc2)c(C)n1C(C)C	-0.105	-2.1
Cc1ccsc1/C=N/n1cnc2scc(-c3cccs3)c2c1=O	x	-1.2
COC(=O)c1cccc(-c2ccc(/C=C(/C#N)c3ccc(Cl)cc3)o2)c1	-0.402	-49.6
CC1(NC(N)=O)CCS(=O)(=O)C1 (stereo not given)	x	6.4
O=c1ccc2ccc(Oc3ncccn3)cc2o1	x	2.0
Cc1ccc(C)c(NC(=O)C2CCCN(c3cnccn3)C2)c1 (stereo not given)	-0.136	3.9
O=C1CN(C(=O)Cc2c(Cl)cccc2Cl)CCN1	x	3.5
Cc1cccc(COn2c(=O)c[n+]([O-])c3ccccc32)c1	-0.0675	3.0
COc1ccc(OCCOC(=O)c2n[nH]c3ccccc23)cc1	x	-0.2
O=c1c(Cl)c(Nc2ccc3c(c2)OCO3)cnn1C12CC3CC(CC(C3)C1)C2	0.13	2.5

# Whole records from above.
# Profile of CN1C(=O)S/C(=C/c2ccc(OCc3ccc(C(=O)O)o3)cc2)C1=O : KSHV LANA nucl: 0.208; Ab BasE inh: -1.3
# Profile of CC1(NC(N)=O)CCS(=O)(=O)C1 (stereo not given) : KSHV LANA nucl: x; Ab BasE inh: 6.4

# More entries:
mol	KSHV LANA nucl	Ab BasE inh
COc1cc(CC(=O)Nc2ccccc2N2CCOCC2)cc(OC)c1OC	x	-1.9
C=CCN1C(=O)c2ccc(C(=O)OCc3nc4cc(C(=O)OC)ccc4c(=O)[nH]3)cc2C1=O	x	0.1
CN(C(=O)Cc1ccc(Br)cc1)c1ccccc1	-1.19	2.8
C/C(=N\C(=O)NN)c1cnn(-c2ccccc2)c1C	x	2.0
Cc1cc(=O)[nH]c(SCCC(=O)O)n1	-1.75	3.8
C=CCn1c(COc2cccc3cccnc23)nnc1SCC(=O)O	0.508	-1.5
CCOC(=O)c1ccc(NC(=O)CSc2nnc(CNc3ccc(C)cc3C)n2Cc2ccco2)cc1	0.0915	4.6
CSc1nnnn1-c1cccc(O)c1	0.75	4.1
CCOC(=O)Cn1cc(/C=C2\C(=O)NC(=O)N(c3ccc(F)cc3)C2=O)c2ccccc21	x	4.9
C1C/C(=N/N=C2\CCCc3nonc32)c2nonc2C1	2.37	-4.5
Cc1ccc(NC(=O)/N=C2/NC(=O)C(C(C)C)O2)cc1 (stereo not given)	x	3.1
COC(=O)C1(C)NC(c2ccc(OC)cc2)C2C(=O)N(c3ccccc3)C(=O)C21 (stereo not given)	-0.986	3.3
N#CCOc1ccc2c(C#N)c3ccccn3c2c1	0.475	x
CC1CCCCC1NC(=O)COC(=O)c1ccc2c(c1)NC(=O)CS2 (stereo not given)	x	-1.9
CCOC(=O)c1cc(C)nc(N2CCC(C(N)=O)CC2)c1C#N	x	0.4
Cc1nc(Cl)c(C#N)c2c1CCCC2	0.798	0.6
CCOC(=O)c1c(C)c(-c2ccccc2)n(CC(=O)N2CCN(c3ccccn3)CC2)c1C	0.379	0.5
O=C1COc2ccc(-n3cccc3)cc2N1	0.621	x
Cc1nn(-c2ccccc2)c(C)c1SCC(=O)O	x	0.0
O=C(NC(C(F)(F)F)C(F)(F)F)OCc1ccc(F)cc1	1.17	1.5
Cc1ccc2sc(-c3nc4ccccc4s3)nc2c1	x	1.2
CCC(=O)Nc1cc(C(F)(F)F)ccc1N1CCCC1	0.306	1.8
CNC(=O)C12CC3CC(C)(CC(C)(C3)C1)C2	-0.513	-0.7
CCCCn1c(=N)n(CC(O)COc2ccc(OC)cc2)c2ccccc21 (stereo not given)	x	-4.9
CCc1ccc2[nH]c(C(=O)Nc3ccccc3C(C)CC)cc2c1 (stereo not given)	x	-0.8
O=C(Nc1ccccc1F)N1CCCC1c1cccnc1 (stereo not given)	-0.925	x
COc1ccc(C(=O)Nc2nc(-c3ccc(C#N)cc3)cs2)c(OC)c1	0.598	-0.9
CN(C(=S)NC(=O)c1ccco1)C1CCS(=O)(=O)C1 (stereo not given)	x	-0.3
O=C(O)/C=C\C(=O)Nc1ccccc1SCC(O)Cn1ccc(C(F)(F)F)n1 (stereo not given)	x	2.0
COCCCn1cnn2c(=O)c3ccccc3nc2c1=O	0.594	3.4
Fc1ccc(CNc2ccc(N3CCOCC3)cc2)cc1	1.16	1.6
CC(c1nc2ccccc2c(=O)[nH]1)N1CCN(Cc2ccc(Cl)s2)CC1 (stereo not given)	x	0.8
Cc1cccc(C)c1NC(=O)CSC(=O)c1sc2ccccc2c1Cl	x	-0.7
COc1ccc(CN(CCC2CCOC(C)(C)C2)C(C)=O)cc1 (stereo not given)	-0.351	-1.8
Cc1nn(-c2ccccc2)c(C)c1C(=O)OCc1cccc(S(=O)(=O)N(C)C)c1	x	2.2
C=CCNC(=O)c1ccc2c(c1)NC(=O)C(C)N2 (stereo not given)	0.092	-0.5
O=C(CO/N=C/c1ccco1)NCc1ccccc1	x	0.4
O=C1CC(Cc2ccccc2)C(=O)N1Cc1ccco1 (stereo not given)	-0.131	3.2
Cc1cc(C)c(N=C2SCC(=O)N2Cc2ccco2)c(C)c1	-0.23	0.4
CC1CC(=O)C2=C(C1)OC(N)=C(C#N)C21C(=O)Nc2ccccc21 (stereo not given)	0.41	-1.7
Cc1ccc(Cn2nnc3c(C)nn4c(-c5cccnc5)nnc4c32)cc1	0.971	0.8
O=C(O)c1cccc(N2C(=O)c3cccnc3C2=O)c1	-0.0835	-0.1
CCCN1CCN(c2nc(-c3cccs3)nc3ccccc23)CC1	x	0.8
N#C/C(=C\N1CCN(C(c2ccccc2)c2ccccc2)CC1)S(=O)(=O)c1ccccc1	x	0.2
CCOC(=O)COc1ccc2c(c1)OCO2	0.0785	-1.3
O=C(NCCc1c[nH]c2ccccc12)C1CC(=O)N(Cc2ccco2)C1 (stereo not given)	x	0.1
O/N=C1\c2ccccc2-c2c(F)c(F)c(F)c(F)c21	0.21	0.6
COc1ccc(Nc2nc(N)nc(CSC(=S)N3CCOCC3)n2)cc1	-0.493	0.8
CCCSc1nsc(SCCC)c1C(N)=O	-0.433	2.1
CC1CC(C)(C)CC2(C1)NC(=O)N(c1ccccc1)N2 (stereo not given)	-0.444	3.7
Nc1ccc(S(=O)(=O)NCCO)cc1	0.297	-0.4
O=C(NCC1COc2ccccc2O1)c1ncoc1-c1ccc2ccccc2c1 (stereo not given)	0.373	0.7
N#CCC(c1ccccc1)c1ccc2c(c1)OCO2 (stereo not given)	-0.999	1.1
O=C(CCCCl)Nc1ccc(Cl)cn1	-0.113	x
CN1CCSc2ccc(C(=O)NC3CCCCC3)cc21	-1.85	1.4
NS(=O)(=O)c1ccc(N2CCN(CCOc3ccc(Cl)cc3)CC2)nc1	x	1.2

# Further records follow:
mol	KSHV LANA nucl	Ab BasE inh
CCN1C/C(=C/c2ccc(O)cc2)C(=O)/C(=C/c2ccc(O)cc2)C1	x	2.7
Cc1noc(C)c1-c1nc(CSc2n[nH]c(=O)n2C2CC2)no1	x	2.5
CC1=CC(=C(C#N)C#N)C=C(C)N1CCc1ccccc1	0.534	-1.1
CCOC(=O)C1C(=O)C(C(=O)OCC)C(c2cccnc2)NC1c1cccnc1 (stereo not given)	-0.717	1.5
COc1ccc(C(=O)NCc2ccccc2OC)cc1	-0.465	0.3
CN[C@@H]1C(O)[C@@H](O[C@@H]2[C@@H](O)[C@H](O[C@H]3OC(CN)=CC[C@H]3N)[C@@H](N)C[C@H]2N)OC[C@]1(C)O (stereo not given in full)	0.281&-0.742	-1.4
C/C(N)=C(/C#N)C(=O)CSc1nncn1C	x	-1.4
COc1ccc([C@@H]2Sc3ccccc3N(CCN(C)C)C(=O)[C@@H]2OC(C)=O)cc1	0.899&0.041&0.131	-1.1&-2.2
O=C(O)c1cc(NC(=O)C2CC2)cc(C(=O)O)c1	-0.534	0.4
O=C(OCc1cc(Cl)ccc1OC(F)F)c1cccnc1	x	-4.4
Cc1nn(-c2ccccc2)nc1-c1n[nH]c(=S)n1-c1ccc(Cl)cc1	1.42	-3.1
NC(=S)Cc1nc2ccccc2s1	x	-10.1
COCC(C)N=C1NN=C(c2cc(C)n(Cc3ccccc3Cl)c2C)CS1 (stereo not given)	x	0.1
COc1ccc(OC)c2sc(NC(=O)C3CC3)nc12	-0.513	-0.4
CNC(=O)CN1C(=O)C2C3C=CC(C3)C2C1=O (stereo not given)	x	1.1
Oc1sc(-c2ccccc2)cc1C=Nc1ccccc1	x	13.0
O=C(Oc1ccc2c(c1)OCO2)c1ccc2c(c1)OCCO2	x	0.6
Oc1ccc2ccccc2c1C(c1cccs1)N1CCCCC1 (stereo not given)	0.856	x
CCN(C(=O)CN1CCCCC1)c1nc2ccc(C)cc2s1	0.446	2.6
C=CCN1C(=O)/C(=C\c2ccc(OCC(=O)O)c(OC)c2)SC1=S	0.823	-4.2
CCCCN1C(=O)C(O)(c2c(C)nn(CCC#N)c2N)c2ccccc21 (stereo not given)	x	-4.3
CC(C)N1C(=O)S/C(=C/c2ccccc2OCc2ccc(C(=O)O)cc2)C1=O	x	1.2
O=C(Cc1cn2ccsc2n1)N/N=C1\CCCCc2ccccc21	x	-2.1
NS(=O)(=O)c1ccc(CNS(=O)(=O)Cc2ccccc2)cc1	0.762	-1.1
N#CC(C#N)c1nc2cc3c(cc2nc1Cl)OCCO3	x	-9.5
O=c1[nH]c2ccc(Cl)cc2c2oc(-c3ccccc3)nc12	x	2.8
CC(C)c1ccc(CNc2nc(N)n(-c3ccccc3)n2)cc1	-0.161	-0.8
CN1N=C(C(C)(C)C)CSC1=Nc1ccccc1	x	0.9
COC(=O)c1ccc2c(c1)C(=O)/C(=C/c1cn(-c3ccccc3)nc1-c1ccco1)O2	2.67	-11.8
COCCN=c1scc(-c2ccc(OC(F)F)cc2)n1/N=C/c1ccc[nH]1	x	1.1
O=C(O)CCC(=O)Nc1ccc(-c2ccccc2)cc1	0.358	-0.3
O=C(c1ccccc1)N1CN(C(=O)c2ccccc2)CN(C(=O)c2ccccc2)C1	x	-0.2
O=C(O)Cc1ccc(C(F)(F)F)cc1	x	-1.4
CCCCn1c(=N)n(CCOc2ccccc2)c2ccccc21	x	0.8
CCOC(=O)COc1c(Cl)cc(/C=C2/NC(=O)NC2=O)cc1OC	0.1	9.3
CCCSc1nc2ccc(S(=O)(=O)N3CCOCC3)cc2[nH]1	x	-0.5
O=C(c1c(Cl)cccc1Cl)N1CCN(Cc2ccccc2)CC1	-0.725	x
O=C(O)c1cccnc1SCc1ccc(F)cc1	-1.17	2.1
Cc1ccc(S(=O)(=O)NC(=O)NC2CCN(c3nccc(C(F)(F)F)n3)CC2)cc1	x	0.5
COc1ccc(C(=O)NCCCN2CCOCC2)cc1S(=O)(=O)N1CCCc2ccccc21	x	-1.6
COc1cc2c(cc1OC)CN(Cc1cc(=O)oc3c(C)c(C)ccc13)CC2	x	1.2
O=C(NCc1ccc2c(c1)OCO2)c1cc2c(s1)CSC2	2.59	-4.5
CCOC(=O)c1ccc(NC(=O)CCc2c[nH]c3ccccc23)cc1	x	-1.4
